2A Renilla: Primary qHTS Assay for Foot and Mouth Disease Virus Antivirals against NCGC Sytravon and CBC Compound Libraries: Renilla Luciferase Signal; Potency, µM (titrated, usually from 57.5 µM), inactives show at the top dose signal change, negative = less light; 120,000 tested, 0.32% active; HEK cells with a luciferase reporter of 2A StopGo recoding; active means well fitted falling curve with a large enough effect; inconclusive means small, poorly fitted or top-dose-only effect; inactive means no such curve, though single readings can be large or run the other way; note: nearly all actives have a fitted effect of over 55% in size; overnight with compound
2A firefly: Primary qHTS Assay for Foot and Mouth Disease Virus Antivirals against NCGC Sytravon and CBC Compound Libraries: Firefly Luciferase Signal. 120,000 tested, 0.23% active. HEK cells with a luciferase reporter of 2A StopGo recoding. Potency, µM (titrated, usually from 57.5 µM), for the others: at the highest dose signal change, negative = less light. AID 1745856, 2022; active = well fitted falling curve with a large enough effect; inconclusive = small, poorly fitted or top-dose-only effect; inactive = no such curve, though single readings can be large or run the other way; note: nearly all actives have a fitted effect of over 60% in size; overnight with compound
The depositor's hits bear a star; ? = inconclusive; [ ] = remark or other dose. % is set by controls: 0 for no effect and ±100 for the full control effect; potency is the fitted concentration of half-maximal effect.

SMILES	2A Renilla	2A firefly
Cc1ccc(S(=O)(=O)c2cn(Cc3ccccc3)c3cc(N4CCCCC4)c(F)cc3c2=O)cc1	-2%	-5%
COc1ccc(C(=O)C2CCN(CCS(=O)c3ccccc3)CC2)cc1 (centres undefined)	3%	1%
CCc1ccccc1NS(=O)(=O)c1c(C)[nH]c(C)c1C(=O)N1CCCC1	86%[activator]	8%
O=C(COc1ccc2nc3n(c(=O)c2c1)CCC3)NC1CCCCC1	8%	31%[activator]
O=C(CS(=O)(=O)c1cccc2nsnc12)Nc1ccccc1	9%	0%
COC(=O)C(C)Oc1cc(C)cc2oc(=O)cc(-c3ccccc3)c12 (centres undefined)	44%[activator]	42%[activator]
FC(F)(F)c1ccccc1CNCc1ccco1	0%	-10%
Cc1ccc(NC(=O)CCCn2c(=O)c3cccn3c3cccnc32)c(C)c1	-10%	-4%
O=C(Cn1ncc2ccccc2c1=O)NCCCC1CCCC1	-10%	30%[activator]
CCOc1ccc(Nc2nc3c(S(=O)(=O)c4ccc(CC)cc4)nnn3c3ccc(Cl)cc23)cc1	-5%	-10%
CCOC(=O)C(NC(=O)c1ccccc1)c1ccccc1 (centres undefined)	3%	66%[activator]
Cc1ccc(C(=O)c2sc(Nc3ccccc3)nc2N)c(C)c1	112%[activator]	240%[activator]
O=C(Nc1nc2ccc(F)cc2s1)c1nn(-c2ccccc2)ccc1=O	2%	6%
NC(Cc1cccc(F)c1)c1cccc(F)c1 (centres undefined)	0%	0%
CCCCOc1cccc(-c2cc(C(=O)O)c3ccccc3n2)c1	?	37%[activator]
Cc1ccc(-c2cnc(-c3ccccc3C(=O)NCc3ccccc3)o2)cc1	90%[activator]	129%[activator]
NC(=O)NC(=O)CSc1ncnc2ccccc12	-24%	3%
Cc1cccc(C)c1NC(=O)CN1CCCCCC1	-1%	-3%
CCc1ccc(C2CC(=O)c3c([nH]c(C(=O)OC4CCCC4)c3C)C2)cc1 (centres undefined)	9%	11%
Cc1cccc(N2CCN(c3cc(C(=O)O)c4cc(NC(=O)c5ccccc5)ccc4n3)CC2)c1	-8%	-2%
O=C1c2oc3ccccc3c(=O)c2C(c2ccc(Br)cc2)N1c1ccccn1 (centres undefined)	-13%	-10%
O=C(NCc1cccn1Cc1ccccc1)Nc1ccc(Br)cc1F	-6%	-12%
Cc1ccc(Cl)cc1-n1c(SCC(=O)NCc2ccccc2)nc2n[nH]c(C)c2c1=N	36%[activator]	-2%
CCCN1CCC(N(C)C(=O)Nc2ccc(F)cc2F)CC1	3%	22%
Cc1ccc(NC(=O)CC2C(=O)OCCN2Cc2ccccc2)cc1Cl (centres undefined)	58%[activator]	13%

Brought forward from above: six entries, then new ones.
SMILES	2A Renilla	2A firefly
Cc1cccc(N2CCN(c3cc(C(=O)O)c4cc(NC(=O)c5ccccc5)ccc4n3)CC2)c1	-8%	-2%
O=C1c2oc3ccccc3c(=O)c2C(c2ccc(Br)cc2)N1c1ccccn1 (centres undefined)	-13%	-10%
O=C(NCc1cccn1Cc1ccccc1)Nc1ccc(Br)cc1F	-6%	-12%
Cc1ccc(Cl)cc1-n1c(SCC(=O)NCc2ccccc2)nc2n[nH]c(C)c2c1=N	36%[activator]	-2%
CCCN1CCC(N(C)C(=O)Nc2ccc(F)cc2F)CC1	3%	22%
Cc1ccc(NC(=O)CC2C(=O)OCCN2Cc2ccccc2)cc1Cl (centres undefined)	58%[activator]	13%
O=C(CCSc1nc2ccccc2s1)NC1CCc2ccccc21 (centres undefined)	26%	2%
c1ccc2c(c1)Cc1cccnc1-2	7%	43%[activator]
Nc1ncnc(Nc2ccc(Cl)cc2)c1[N+](=O)[O-]	4%	0%
CCOc1ccc(CNC(=O)C2Cc3ccccc3N2C(=O)CC)cc1 (centres undefined)	-8%	-11%
COc1ccc(CN(C)Cc2cc(=O)oc3ccc(C)cc23)cc1	-18%	-16%
CCC(CC)NC(=O)Nc1ccccc1F	5%	119%[activator]
CC(C)CC(NC(=O)C(c1ccccc1)C(C)C)c1ccccc1 (centres undefined)	16%	18%
COC(=O)Cc1csc(NC(=O)Cc2c(C)c3ccc(OC)cc3oc2=O)n1	22%	-3%
Cc1c(/C=C(\C#N)C(=O)Nc2cccc(Cl)c2)c2ccccc2n1Cc1ccccc1Cl	-13%	-5%
COc1ccc(S(=O)(=O)N2CCN(c3ccc(F)cc3)CC2)cc1-c1noc(C)n1	-13%	-24%
Oc1c(Cl)cccc1C=Nc1cc(C(F)(F)F)ccc1Oc1ccccc1	-6%	12%
COc1cccc(N2CC(NC(=O)CCCc3ccccc3)CC2=O)c1 (centres undefined)	-5%	-25%
Cc1cccc(-c2noc(CN(C(=O)COc3ccc(Br)cc3C)C(C)C)n2)c1	-6%	4%
CCC/C=N/NC(=O)c1ccccc1C	12%	0%
Oc1cccc(Nc2nc(-c3ccccc3)nc3ccccc23)c1	-10%	-4%
COc1cccc(OC)c1C(=O)Nc1ccc2oc(=O)ccc2c1	9%	10%
N#CCc1ccc(OCc2ccc(C#N)cc2)cc1	11%	150%[activator]
CCCN(C1CCS(=O)(=O)C1)S(=O)(=O)c1ccc(OC)cc1 (centres undefined)	9%	3%
Cc1cccnc1NC(=O)c1ccc(C2SCCCS2)cc1	30%	123%[activator]
O=C(NCCc1csc(-c2cccnc2)n1)c1cccc(Cl)c1	12%	42%[activator]
CC(=O)N1CCCC1c1nc2ccccc2n1Cc1cc(C)ccc1C (centres undefined)	-6%	-1%
CC(C)N(C(=O)c1cccc(I)c1)C(C)C	19%	2%
N#Cc1ccc(NC(=O)c2ccc3c(c2)OCCCO3)cc1	?	7%
O=C(COCc1cc(-c2ccc(F)cc2)on1)Nc1ccccc1F	10%	10%
CCNC(=O)c1ccc2c(c1)nc1n2CCCCC1	-18%	99%[activator]

Quoted from the listing:
In 2A firefly, N#Cc1ccc(NC(=O)c2ccc3c(c2)OCCCO3)cc1 is entered as 7%
In 2A Renilla, Oc1cccc(Nc2nc(-c3ccccc3)nc3ccccc23)c1 is entered as -10%
In 2A firefly, O=C(COCc1cc(-c2ccc(F)cc2)on1)Nc1ccccc1F is entered as 10%
In 2A firefly, Cc1c(/C=C(\C#N)C(=O)Nc2cccc(Cl)c2)c2ccccc2n1Cc1ccccc1Cl is entered as -5%
In 2A firefly, COc1cccc(N2CC(NC(=O)CCCc3ccccc3)CC2=O)c1 (centres undefined) is entered as -25%

Going on with the list:
SMILES	2A Renilla	2A firefly
CCCOc1cccc(C2c3c(oc4ccccc4c3=O)C(=O)N2c2nncs2)c1 (centres undefined)	-14%	-13%
CC(=O)N1CCCc2cc(S(=O)(=O)N3CCC(C(=O)NCc4ccc(C)cc4)CC3)ccc21	16%	3%
CC(C)(C)CC(=O)NCCc1ccsc1	11%	0%
O=C(COc1ccc2ccc(=O)oc2c1)NC1CC1	8%	19%
CCOc1c(Br)cc(C(=O)Oc2cccc(F)c2)cc1OC	3%	2%
Cc1nc(Nc2nc(CCC(C)C)cc(=O)[nH]2)nc2c(C)cccc12	-3%	-9%
CC(=O)c1c(C)[nH]c(C(=O)C(C)OC(=O)c2cc(F)cc(F)c2)c1C (centres undefined)	-4%[1.06 µM]	23%
COc1ccccc1Oc1nc2c(c(=O)n(C)c(=O)n2C)n1Cc1cccc(Br)c1	7%	4%
Cc1cc(C)cc(OCc2ccc(C(=O)Nc3ccccc3F)o2)c1	-5%	-7%
NC(=O)c1ccc(OCC2CCCCC2)cc1	13%	179%[activator]
COc1cc(Nc2nc3c(S(=O)(=O)c4ccccc4)nnn3c3ccc(Cl)cc23)cc(OC)c1	-15%	28%
Cc1ccc(Cl)cc1N1CCN(C(=O)c2ccc3c(c2)N(Cc2ccc(F)cc2)CCS3)CC1	18%	3%
CCCn1c(=O)n(CC(=O)Nc2ccc(C)c(F)c2)c(=O)c2c1nc(C)n2CCOC	-5%	3%
Cc1cc(C)c(O)c(-c2n[nH]c3c2C(c2ccc(Cl)c(Cl)c2)N(CCCO)C3=O)c1 (centres undefined)	-1%	-6%

3 records drawn at random from those above:
SMILES	2A Renilla	2A firefly
Cc1nc(Nc2nc(CCC(C)C)cc(=O)[nH]2)nc2c(C)cccc12	-3%	-9%
CC(C)(C)CC(=O)NCCc1ccsc1	11%	0%
NC(=O)c1ccc(OCC2CCCCC2)cc1	13%	179%[activator]

Record cards (already shown). Order of values: 2A Renilla, 2A firefly
CC(C)CC(NC(=O)C(c1ccccc1)C(C)C)c1ccccc1 (centres undefined) reads 16%, 18%
O=C(Cn1ncc2ccccc2c1=O)NCCCC1CCCC1 reads -10%, 30%[activator]
CCOc1ccc(Nc2nc3c(S(=O)(=O)c4ccc(CC)cc4)nnn3c3ccc(Cl)cc23)cc1 reads -5%, -10%
CC(=O)N1CCCc2cc(S(=O)(=O)N3CCC(C(=O)NCc4ccc(C)cc4)CC3)ccc21 reads 16%, 3%

These rows are one share of the data; rates above refer to the full screens.
